Screens from PubChem BioAssay.
NPYLR7 ag = agonists of mosquito NPYLR7 receptor, primary screen, cell-based, Aedes aegypti, calcium fluorescence, mosquito biting behavior; Aedes aegypti neuropeptide Y-like receptor 7 (NPYLR7); HEK293T NPYLR7/Galpha15, GCaMP6s calcium fluorescence; activation, % at 10 µM; 0.15% of 270,000 active; in the data active means activation above about 40%;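 further: 0% = vehicle and 100% = reference agonist at the receptor; some compounds past the cut are filed as inactive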
NPYLR7 ag max-min = further read-out of NPYLR7 ag, marked with its call; activation, %; measured here: Max-Min RFU normalised activation; some inactives read as strong as hits;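 span of the calcium signal over five minutes; 0% = vehicle and 100% = native peptide agonist; compound fluorescence can raise it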
* hit, by the source's call; & = joins results of further samples.

SMILES	NPYLR7 ag	NPYLR7 ag max-min
CCC(=O)Nc1ccc(NC(=O)C(C)N2CCCC2=O)cc1Cl (centres undefined)	3	-7
Cc1nc2cc(=O)[nH]n2c(C)c1CC(=O)N1CCCC1C(C)C (centres undefined)	4	1
COC(=O)[C@@H]1[C@H](C(=O)N2CCC(c3ccc(F)cc3)CC2)[C@@H]2C=C[C@H]1C2	-1	-8
COc1cc2nc(C=Cc3cc(OC)c(OC)c(OC)c3)sc2cc1SC	8	8
Cc1cc(OCC2c3ccsc3CCN2C(=O)CN(Cc2ccco2)C(=O)C2CCCC2)ccc1Cl (centres undefined)	15	14
O=C(c1cn[nH]n1)N1CCN(C(=O)C2CCCCC2)CC1	2	-4
CCc1nccn1CCC(=O)N1CCCC2(CCN(C)CC2)CC1	3	0
Cc1noc(-c2ccc(OC(F)(F)F)cc2)c1C(=O)NCc1ccc(C(F)(F)F)cc1	5	2
CCn1nccc1C(=O)N(Cc1ccccn1)c1nc2ccc(Cl)cc2s1	1	2
C=CCn1c(=O)c2c(nc3n2CC(C)=NN3CC(=O)OC)n(C)c1=O	-4	-7
CN1CCc2cc(C(C#N)N3CCOCC3)ccc21 (centres undefined)	9	5
CN(Cc1ccccc1)Cn1nc2n(c1=O)CCCCC2	0	-4
Cc1cccc(Oc2cnn(-c3ccccc3Cl)c(=O)c2Nc2ccc(C(=O)N3CCOCC3)cc2)c1	3	14
COC(=O)C1C2C=CC3(CN(C(C)C)C(=O)C13)O2 (centres undefined)	2	0
Cc1ccccc1-c1nc(NCC2CC2)nc2ccsc12	3	0
COc1ccc(S(=O)(=O)N(Cc2ccc(OC)c(OS(=O)(=O)c3ccc(F)cc3)c2)Cc2ccco2)cc1	-1	4
COc1cc(CN2CCCn3cccc3C2c2ccccc2OC)cc(OC)c1 (centres undefined)	-3	-1
COc1ccc(-c2nc3ccccc3c(=O)o2)cc1OC	0	-6
CCOc1ccccc1NC(=O)N(CC(=O)N(CCc1c[nH]c2ccccc12)Cc1ccc(F)cc1)CC(C)C	20	25
Clc1ccccc1C=NNC1=Nc2cccc3cccc1c23	-4	-7
Cc1cc(-c2csc(CC#N)n2)c(C)n1C1CC1	-1	2
CC(Sc1nnc(N2CCOCC2)n1C)c1ccc(OC(F)F)cc1 (centres undefined)	4&-8	3&-11
O=C(NCCc1ccc(F)cc1)C1Cc2ccccc2O1 (centres undefined)	-8	-10
CCOCCCN(CC(=O)N1CCc2sccc2C1c1ccccc1C)S(=O)(=O)c1cccc(C(F)(F)F)c1 (centres undefined)	12	8
O=C(NCc1cccc(C(F)(F)F)c1)c1cc(-c2ccc(F)cc2)nc2cc(-c3ccccc3)nn12	21	27
Cc1ccc(Nc2nc(NCc3ccco3)nc3nccnc23)cc1Cl	0	3
O=c1oc2ccc(Cl)cc2cc1-c1nnc(-c2cccc(Cl)c2)o1	-4	-8
COc1ccccc1N=Nc1c(C)[nH]n(-c2ccccc2)c1=O	20	11
C/C=C/CC(=O)Nc1cc(C)ccc1NC(=O)CCCC	11	-2
CN1C(=O)C(=C2C=C(c3ccccc3)N(CCOCCO)C3=C2CCCC3)C(=O)N(C)C1=O	-1	-6
O=C(Nc1cccc2ccccc12)c1ccc2ccccc2n1	-10	-13
O=c1c2ccccc2ncn1Cc1cccc(S(=O)(=O)N2CCOCC2)c1	1	0
CCOC(=O)C1(NC(=O)c2cn3ccsc3n2)CCC1	22	7
O=C(N1CCN(c2nccc(-c3ccco3)n2)CC1)C(F)(F)C(F)(F)C(F)(F)F	0	6
Cc1nc(C)c(C(=O)NCC2(c3ccccc3)CCC2)s1	4	5
COCCOC(=O)C1C(=N)OC2=C(C(=O)CCC2)C1c1cccnc1 (centres undefined)	-1	-2
CC(C)N(CC(=O)Nc1cc(-c2ccccc2)nn1-c1ccc(Cl)c(Cl)c1)C(=O)NCc1ccccc1	18	26
Cc1nnc(SCCNC(=O)c2[nH]c3ccc(F)cc3c2C)s1	15	5
CCOC(=O)c1c(N)sc(C(=O)Nc2cccc(Cl)c2)c1C	-7	-11
CCCCCCn1c(SCc2ccc(F)cc2)nc2c1c(=O)[nH]c(=O)n2C	18	12
CC(C)Cn1cnc2c(N)nc3ccccc3c21	3	-35
Cc1cc(C)c2sc(N(Cc3cccnc3)C(=O)c3ccco3)nc2c1	-5	-4
CCOC(=O)CCNC(=O)N1CCN(Cc2nnnn2-c2ccc(Cl)cc2)CC1	0	0
O=C1CCCN1CCCNc1nc(NCc2cccs2)nc2ccsc12	13	8
CC(C)c1ccc(S(=O)(=O)NCc2cccnc2)cc1	4	1
CN(CCOc1ccccc1F)C(=O)C1CCN(C(=O)c2ccc(F)cc2)CC1	0	-1
CC(C)(C)C1CCC(C(=O)OCC(=O)c2ccc(Cl)s2)CC1 (centres undefined)	5	5
Cc1[nH]c(-c2ccccc2)nc1C(=O)N1CCNCC(CC(=O)O)C1 (centres undefined)	-2	-3

Reformatted comma-delimited: entries from further up
Compound,NPYLR7 ag,NPYLR7 ag max-min
O=C(Nc1cccc2ccccc12)c1ccc2ccccc2n1,-10,-13
O=c1c2ccccc2ncn1Cc1cccc(S(=O)(=O)N2CCOCC2)c1,1,0
CCOC(=O)C1(NC(=O)c2cn3ccsc3n2)CCC1,22,7
O=C(N1CCN(c2nccc(-c3ccco3)n2)CC1)C(F)(F)C(F)(F)C(F)(F)F,0,6
Cc1nc(C)c(C(=O)NCC2(c3ccccc3)CCC2)s1,4,5
COCCOC(=O)C1C(=N)OC2=C(C(=O)CCC2)C1c1cccnc1 (centres undefined),-1,-2
CC(C)N(CC(=O)Nc1cc(-c2ccccc2)nn1-c1ccc(Cl)c(Cl)c1)C(=O)NCc1ccccc1,18,26
Cc1nnc(SCCNC(=O)c2[nH]c3ccc(F)cc3c2C)s1,15,5
CCOC(=O)c1c(N)sc(C(=O)Nc2cccc(Cl)c2)c1C,-7,-11
CCCCCCn1c(SCc2ccc(F)cc2)nc2c1c(=O)[nH]c(=O)n2C,18,12
CC(C)Cn1cnc2c(N)nc3ccccc3c21,3,-35
Cc1cc(C)c2sc(N(Cc3cccnc3)C(=O)c3ccco3)nc2c1,-5,-4
CCOC(=O)CCNC(=O)N1CCN(Cc2nnnn2-c2ccc(Cl)cc2)CC1,0,0
O=C1CCCN1CCCNc1nc(NCc2cccs2)nc2ccsc12,13,8
CC(C)c1ccc(S(=O)(=O)NCc2cccnc2)cc1,4,1
CN(CCOc1ccccc1F)C(=O)C1CCN(C(=O)c2ccc(F)cc2)CC1,0,-1
CC(C)(C)C1CCC(C(=O)OCC(=O)c2ccc(Cl)s2)CC1 (centres undefined),5,5
Cc1[nH]c(-c2ccccc2)nc1C(=O)N1CCNCC(CC(=O)O)C1 (centres undefined),-2,-3

(listing goes on)
SMILES	NPYLR7 ag	NPYLR7 ag max-min
COC(=O)c1cc(Cl)cc(Cl)c1NC(=O)CCl	0	12
COc1cccc(-c2cc(C(=O)NCCc3ccc(OC)c(OC)c3)n3nc(C(C)(C)C)cc3n2)c1	12	12
CCN1CC(CN(C)Cc2cc3ccc(SC)cc3[nH]c2=O)CC1=O (centres undefined)	2	-3
O=C(c1ccccc1C(F)(F)F)N1CCc2ccccc2C1c1ccc(Cl)cc1 (centres undefined)	-3	3
CC1Oc2ccccc2N(CCC(=O)NC2CC2c2ccccc2)C1=O (centres undefined)	6	4
COCCOc1nc(-c2ccc(C(F)(F)F)cc2)n(-c2ccc(N)cc2)n1	-3	-15
COCCn1cc(C(=O)N2CCN(c3cccc(Cl)c3)CC2)c2nn(-c3ccccc3)c(=O)c-2c1	5	3
CN1CC2(CCN(CCSc3ccccc3)C2)OC1=O (centres undefined)	0	-7
COc1cc(CN(C)C(=O)c2c(C)noc2-c2cccnc2)cc(OC)c1OC	0	13
COCCOC(=O)N1C[C@H]2[C@H](O)[C@@H]3C[C@H](c4ccc(F)cc4)[C@@H](O3)[C@H]2C1	8	15
CCCNC(=O)C(NC(=O)CC(C)C)C1CCNCC1 (centres undefined)	0	13
CN(C(=O)c1ccc(N2CCCC2=O)cc1)c1ccc2ccccc2n1	4	3
Cc1nc2ccc(C(=O)Nc3cc(=O)n(-c4ccccc4)[nH]3)cn2c1N(C)C(=O)CCc1ccccc1	22	15
COC(=O)c1ccc(NC(=O)CCCn2nc(-c3cccc(OC)c3)ccc2=O)cc1	1	2
CCOC(=O)c1c(C)nn(-c2ccc(C(=O)NCCCN3CCOCC3)cc2)c1C	5	2
CC(CN(C)C(=O)c1cnc(-c2ccccc2)nc1)N1CCOCC1 (centres undefined)	1	0
Cc1cn2c3c(=O)n(CCc4ccccc4)c(=O)n(C)c3nc2n1C(C)c1ccccc1 (centres undefined)	10	8
CCCN(C(=O)C1CC1)C(CC)c1nc2ccccc2c(=O)n1-c1ccc(F)c(Cl)c1 (centres undefined)	-1	-9
CC(C)(C)c1ccc(C2SCCN2C(=O)c2ccc(Cl)cc2Cl)cc1 (centres undefined)	-5	-4
CC(C)CCN(CC(=O)N1CCc2sccc2C1c1ccc(Cl)cc1Cl)C(=O)c1ccco1 (centres undefined)	5	6
COC(=O)[C@@H]1C[C@@H](NC(=O)C2CCN(c3ncccn3)CC2)CN1C	8	4
Cn1cc(CN2CCCC(OCc3cccnc3)C2)c(-c2cccc(Cl)c2)n1 (centres undefined)	15&5	4&3
Cc1ccc2nc(NCCCN3CCOCC3)c(C=NCCCN3CCOCC3)c(=O)n2c1	7	4
O=C(Nc1ccccc1Oc1ccccc1)N[C@H]1C[C@H]2C(=O)NCC(=O)N2C1	7	4
CCC[N+](C)(CC#CC1CC1)C1CCCCC1 (centres undefined)	0	-1
CC(C)CNC(=O)[C@@]1(OCc2ccccc2)CC(OCc2cccc(C(F)(F)F)c2)[C@H](O)[C@H](O)C1 (some centres undefined)	15	1
COc1cc(OC)cc(N2C(=O)/C(=C\c3ccc(CO)o3)N(C)C2=S)c1	-5	7
C#CCNC(=O)c1cccc(S(=O)(=O)N(CC)c2ccccc2)c1	0	0
Cc1cc(C)nc(N=C(NC(=O)c2ccccc2)Nc2ccccc2)n1	-7	-10
CCc1cc(C(=O)OC(C)C(=O)N2CC(=O)Nc3ccccc32)sc1C (centres undefined)	3	0
Cc1ccc(C(=O)N2CCC2(C)C(=O)NC(C)C)cc1 (centres undefined)	-2	-5
CC(=O)Nc1cccc(-n2ccnc2-c2ccnc(C(C)C)n2)c1	0	0
COc1cc(C(NC(=O)CCl)NC(=O)CCl)ccc1OCc1ccccc1	10	9
CC1CCCCN1C(=O)CCCc1c[nH]c2ccccc12 (centres undefined)	-1	0
Cc1cc(C)n(Cc2cc(C(=O)NCc3ccc4c(c3)OCO4)n[nH]2)n1	19	11
Fc1cccc(C2CC(c3cccc(Br)c3)=Nc3nnnn32)c1 (centres undefined)	1	1
O=S(=O)(NCc1ccccc1)Nc1cc(Cl)ccc1-n1cncn1	2	-1
Cc1ccc(C2c3ccccc3CCN2C(=O)/C=C/c2ccccc2)cc1 (centres undefined)	23	11
C=CCN(C(=O)CCl)c1nc(-c2ccc(Cl)c(Cl)c2)cs1	15	18
Cc1nn2c3ccccc3n(CCO)c2nc1=O	5	2
O=[N+]([O-])c1cc2c(cc1C=NNC(=S)NC1CCCCC1)OCO2	-1	0
COC(=O)c1c(O)ccc(Oc2ccccc2)c1C(=O)OC	-10	-11
CCN(CC)CCCNc1c(Cc2ccccc2)c(C)nc2ncnn12	26	10
Cc1sc2ncnc(OCC(=O)NCC3CCCO3)c2c1C (centres undefined)	2	0
O=C(NCc1cccnc1-n1cnc2ccccc21)C(=O)Nc1ccccc1	9	10
COc1ccc(/C=N\Nc2ncnc3nc[nH]c23)cc1O	-1	-4
CCOC(=O)C1C(=O)C=C(c2ccco2)CC1c1ccccc1 (centres undefined)	-2	3
N#Cc1ccc(CN(Cn2cc(Cl)cn2)CC(F)(F)F)cc1	5	-5
COc1ccc(-c2nnc(SCc3ccccn3)n2-c2ccc(C)cc2)cc1	-6	0
CC(C)c1ccc(NC2CCCN(C(=O)CCN3CCCCO3)C2)cc1 (centres undefined)	12&-1	6&-2
Cc1nc2n(n1)C(=O)C(C(c1ccc(Br)cc1)N1CC(C)OC(C)C1)S2 (centres undefined)	0	-1
O=C(NCCSc1ccc(Cl)cc1)[C@H]1CCCO1	3	-1
Cc1ccccc1C1(O)CCN(C(=O)COc2cccnc2)C1 (centres undefined)	3	1
CCn1c(CC2CCNCC2)nn(CCC2CCCCN2C)c1=O (centres undefined)	19&0	17&1
CCNC(=O)N(CCCOC)Cc1c(-c2ccccc2)noc1N(CC)CC	-10	-6
COc1ccccc1-n1c(CNC(=O)Cc2ccccc2)nnc1SCC(=O)Nc1nnc(C)s1	-6	-4
CC(NC(=O)CC12CC3CC(CC(Br)(C3)C1)C2)C12CC3CC(CC(C3)C1)C2 (centres undefined)	2	0
O=C(CCCN1CCOCC1)N1CCC(c2[nH]ncc2-c2ccccc2)CC1	-4	-3
Cc1ccc(CN(CCc2ccccc2)C(=O)CN(CCN2CCOCC2)C(=O)Nc2cccc(F)c2)o1	2	22
CCN1CCCC2(CCCN(C(=O)c3ccccc3-c3nn[nH]n3)C2)C1 (centres undefined)	4	1

Additional compounds:
SMILES	NPYLR7 ag	NPYLR7 ag max-min
CC(C)CCSc1nc2c(cnn2CCO)c(=O)[nH]1	1	-1
Cn1ncc2c(=O)n(CC(=O)Nc3cccc4ccccc34)cnc21	-7	-10
COC(=O)C1CCC2C3CC=C4CC(O)CCC4(C)C3CCC12C (centres undefined)	4	3
COc1cccc(CN2CCN(c3ccc4c(c3)CCC4)C(=O)C2C)c1 (centres undefined)	2	17
O=C1NC2(CCSC2)C(=O)N1CN1CCCC1Cc1ccccc1 (centres undefined)	7	4
C=CCNC(=S)NN=C1CCCCCC1	6	2
CCc1cc(=O)[nH]c(-n2nc(C)cc2NC(=O)Cc2cccs2)n1	4	-1
N#CC1C(=N)Oc2n[nH]c(-c3cccs3)c2C1c1cccs1 (centres undefined)	14	14
Clc1ccc(-c2cc(CN3CCN(c4ccccn4)CC3)on2)cc1	12	10

Only part of the results is shown; rates above refer to the full screens.
